gsp antag: qHTS for Antagonists of gsp, the Etiologic Mutation Responsible for Fibrous Dysplasia/McCune-Albright Syndrome: qHTS. gsp-mutant cells, cAMP HTRF, 30 min; control for the full effect not named in the record. Potency, µM (titrated, usually from 76.9 µM), inactives show at the highest dose activity change, negative = inhibition, actives largely listed as inhibitors. 0.4% of 340,000 active. AID 624288, 2012; active = falling curve of any shape with a large fitted effect; inconclusive = falling curve, mostly with a smaller effect; inactive = flat or rising curve; cell line not stated here;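 note: intracellular cAMP measured with PDE inhibitor Ro 20-1724 present during compound exposure; potency is the fitted concentration of half-maximal effect; % is set by controls: 0 for no effect and ±100 for the full control effect; nearly all actives have a fitted effect of over 65% in size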
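HTRF cAMP read-out (cAMP-d2 plus anti-cAMP antibody-K in lysis buffer, 30 min RT). Before lysis, cells are exposed to compounds with […] for 30 min at 37C in DPBS containing Ca/Mg, BSA and Tween 20.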
Sfp inh: qHTS Assay for Inhibitors of Bacillus subtilis Sfp phosphopantetheinyl transferase (PPTase); Biochemical Sfp PPTase activity, qHTS; AID 1490, 2009; 3.5% of 310,000 active; Potency, µM, without a hit: max response, negative = inhibition, usual class: inhibitors; active = well fitted inhibition curve with a large enough effect; inconclusive = small, poorly fitted or top-dose-only effect, or another doubt; inactive = no such curve, though single readings can be large or run the other way;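 note: the enzyme is Sfp with the accession as filed and its product quenches rhodamine fluorescence; potency is the fitted concentration of half-maximal effect; 0% = enzyme reaction without inhibitor and -100% = no enzyme wells; top concentration of the series not given in the record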
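With Hepes-Na pH 7.6 buffer containing 10 mM MgCl2, Sfp (15 nM) modified BHQ-2-YbbR (12.5 uM) using rhodamine-CoA (5 uM). Two reads 30 minutes apart at 525/598 nm yielded each well's rate.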
ClpP mod: qHTS Assay for Activators of ClpP; ATP-dependent Clp protease proteolytic subunit (Bacillus subtilis (strain 168)), P80244; purified B. subtilis ClpP, FRET peptide cleavage, 20 min; AID 651965, 2013; 1.9% of 340,000 active; Potency, µM (doses to about 57.5 µM), for inactives: at the highest dose activity change, negative = active; active = well fitted falling curve with a large enough effect; inconclusive = small, poorly fitted or top-dose-only effect; inactive = no such curve, though single readings can be large or run the other way; note: potency is the fitted concentration of half-maximal effect; the source files actives as falling curves though it sought activators and does not explain the sign; nearly all actives have a fitted effect of over 65% in size; many hits overshoot -100%
Target sequence (P80244 whole entry, looked up): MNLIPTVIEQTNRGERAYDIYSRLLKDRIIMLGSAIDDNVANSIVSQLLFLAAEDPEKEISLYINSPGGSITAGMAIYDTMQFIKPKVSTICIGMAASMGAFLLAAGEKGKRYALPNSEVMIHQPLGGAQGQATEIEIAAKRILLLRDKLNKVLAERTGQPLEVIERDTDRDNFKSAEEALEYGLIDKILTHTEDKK
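Buffer: 100 mM Tris/HCl pH8, 100 mM KCl, 0.05% low protease BSA, 2.5% glycerol, 0.01% Tween-20. ClpP 10 microg/mL final; 20 min RT; delta FRET normalized to ADEP and DMSO controls.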
gsp ag: qHTS for Agonist of gsp, the Etiologic Mutation Responsible for Fibrous Dysplasia/McCune-Albright Syndrome: qHTS; gsp mutant cells, cAMP HTRF, 30 min; control for the full effect not named in the record; Potency, µM (series often up to 76.9 µM), without a hit: top-dose activation (cAMP increase), usual class: activators; 0.13% of 340,000 active; AID 624287, 2012; active = well fitted activation curve with a large enough effect; inconclusive = small, poorly fitted or top-dose-only effect, or another doubt; inactive = no such curve, though single readings can be large or run the other way; cell line not stated here;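 note: phosphodiesterase inhibitor Ro 20-1724 added with compounds to block cAMP breakdown; potency is the fitted concentration of half-maximal effect; nearly all actives have a fitted effect of over 60% in size; about a fifth of the inactives were tested at one dose only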
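Cells in DMEM/10% FBS with G418 were pretreated with compounds in DMSO plus […] (300 uM stock) for 30 min at 37C. cAMP was measured by HTRF (cAMP-d2 plus anti-cAMP antibody-K) after 30 min at room temperature.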
CtBP-E1A blk: qHTS Assay for Inhibitors of the CtBP/E1A Interaction. activity change, % (test concentration not listed). 0.49% of 340,000 active. AID 651724, 2012. AlphaScreen GST-E1A/His-CtBP binding, 1536-well; active compounds read low; control for the full effect not named in the record; in the data active means activity change below about -65%; inconclusive means about -30% to -65%; inactive means above about -30%; note: % is set by controls: 0 for no effect and ±100 for the full control effect
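AlphaScreen with 125 nM GST-E1A and 125 nM His-CtBP (5X stocks) in Tris pH 8.0, 300 mM NaCl, BSA, Tween 20, TCEP. Compounds preincubated 2 h at 37 deg C, then glutathione donor/nickel acceptor beads added for 1 h at 37 deg C in dark.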
TRPV1 PAM: HTS Assay for Compounds that Act as Potentiators of the Vanilloid Receptor 1; Transient receptor potential cation channel subfamily V member 1 (Homo sapiens), Q8NER1; TRPV1-expressing cells, Fluo-8 calcium influx, capsaicin EC20 potentiation; host cell line not named in the record; control for the full effect not named in the record; potentiation, % at 8.33 µM; 0.02% of 320,000 active; active means potentiation above 80%; inconclusive means 30% to 80%; inactive means below 30%; note: 0% is about no effect
Target sequence (Q8NER1 whole entry, looked up): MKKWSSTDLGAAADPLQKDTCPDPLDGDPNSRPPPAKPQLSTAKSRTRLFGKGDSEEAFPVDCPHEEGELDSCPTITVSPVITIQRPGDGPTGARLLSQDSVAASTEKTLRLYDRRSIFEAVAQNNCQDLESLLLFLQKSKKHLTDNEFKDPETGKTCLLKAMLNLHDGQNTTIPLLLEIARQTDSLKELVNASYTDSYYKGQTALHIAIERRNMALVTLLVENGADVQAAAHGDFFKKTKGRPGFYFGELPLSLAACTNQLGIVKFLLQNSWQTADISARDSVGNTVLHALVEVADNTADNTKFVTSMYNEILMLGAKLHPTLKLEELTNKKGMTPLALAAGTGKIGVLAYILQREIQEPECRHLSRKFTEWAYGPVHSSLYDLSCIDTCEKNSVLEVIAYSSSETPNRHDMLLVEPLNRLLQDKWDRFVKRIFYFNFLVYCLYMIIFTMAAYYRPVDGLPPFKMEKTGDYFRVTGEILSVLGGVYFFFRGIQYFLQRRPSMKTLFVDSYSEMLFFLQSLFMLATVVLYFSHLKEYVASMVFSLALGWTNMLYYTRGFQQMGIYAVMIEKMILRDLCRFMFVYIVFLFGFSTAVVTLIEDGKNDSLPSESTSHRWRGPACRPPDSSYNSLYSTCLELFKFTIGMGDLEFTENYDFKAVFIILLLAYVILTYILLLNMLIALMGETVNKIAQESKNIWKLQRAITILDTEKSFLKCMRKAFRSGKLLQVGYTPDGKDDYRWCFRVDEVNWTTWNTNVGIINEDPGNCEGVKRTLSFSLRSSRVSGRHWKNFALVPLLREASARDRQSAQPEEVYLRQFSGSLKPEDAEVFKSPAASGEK
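TRPV1-expressing cells were cultured overnight at 35.5C and loaded with Fluo-8 calcium dye for 40 to 90 min at room temperature. After a 10 s baseline, compound was added and calcium influx was read kinetically for 3 min (ex 480/em 520 nm).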
Menin-MLL FL inh: qHTS Assay for Inhibitors Targeting the Menin-MLL Interaction in MLL Related Leukemias: Competition With Fluorescein Labeled MLL-derived Peptide; FP activity change, % at 61.4 µM; Fluorescence polarization, fluorescein-MLL peptide displacement from menin; 290,000 tested, under 10 active; inconclusive = falling polarisation curve, or a change in total fluorescence; inactive = total fluorescence flat and polarisation flat or rising; no compound was filed as active; the % refers to the polarisation; negative = inhibition;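 note: % of control where 0% means no effect; inhibitors lower the polarisation; unlabelled MLL peptide was the positive control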
* marks the source's active call; other numbers are inactive results; ? = inconclusive; · = not tested or not shown; & = joins results of further samples; [ ] = dose if it differs, or a comment.

SMILES	gsp antag	Sfp inh	ClpP mod	gsp ag	CtBP-E1A blk	TRPV1 PAM	Menin-MLL FL inh
CCO/N=C(/C)c1c(O)cc(-c2ccccc2)n(-c2ccccc2)c1=O	-2%	7%	1.1%	-2%[15.4 µM]	0	1	6.4
Cc1ccccc1N(C(=O)c1snc(C(N)=O)c1N)C(C(=O)NCc1ccccc1)c1ccc(O)cc1 (stereo not given)	11%	16%	·	-31%[15.4 µM]	-7	10	4.2
O=C(Nc1ccc(-c2nc3ccccc3o2)cc1)c1ccc(N2CCOCC2)c([N+](=O)[O-])c1	?	10%	-8.3%	-5%	-3	17	1.8
N[C@@H](Cc1ccccc1)C(=O)N1CCOCC1	1%	·	1.4%	-15%	4	8	·
C[C@H](CO)N1C[C@H](C)[C@@H](CN(C)Cc2ccccc2)Oc2c(NS(=O)(=O)c3ccc(F)cc3)cccc2C1=O	-10%	·	-3.6%	-3%	1	·	·
CN(CC(=O)NCCN1CCOCC1)S(=O)(=O)c1ccc(F)cc1	-15%	17%	-1.1%	8%[15.4 µM]	22	7	-0.4
CN1CCC(OC(=O)c2ccco2)CC1	17%	15%	0.7%	11%[15.4 µM]	0	5	-3.2
O=C(NC1CCCCC1)c1ccccc1NC(=S)NC(=O)C1CC1	7%	19%	-4.4%	-16%	-12	2	3.0
Cn1ncc2c(Nc3ccc(Cl)c(Cl)c3)ncnc21	-4%	15%	-9.7%	7%	·	-8	-3.3
CC1CCCN(CCCN2C(=O)C3C(C(=O)Nc4ccc(Cl)cc4)C4C=CC3(O4)C2C(=O)NC2CCCCC2)C1 (stereo not given)	5%	7%	·	-4%	1	2	-6.6
COc1cccc(NS(=O)(=O)NC(=O)c2c[nH]c3ccccc23)c1	3%	5%	-3.7%	-3%	·	9	·
O=C(Nc1ccc2c(c1)OCO2)c1ccc(Cl)cc1Cl	-8%	21%	-0.4%	-19%	11	3	·
COc1ccccc1N1CCN(S(=O)(=O)c2ccc3c4c(cccc24)C(=O)N3)CC1	-6%	-6%	2.1%	-13%	5	13	0.0
COc1ccc(N=C2CCS(=O)(=O)c3sccc32)cc1	-17%	-18%	1.3%	16%[15.4 µM]	3	2	-0.4
OC(COc1ccc(C2C=CCC2)cc1)CN1CCCCC1 (stereo not given)	11%	18%	-3.3%	-11%	-10	4	4.1
O=C(O)CC1(CC(=O)NCc2ccc(-c3cccs3)cc2)CCCCC1	-12%	6%	·	23%	4	2	1.1
CCC1(C(=O)O)NC(c2cccc(OC)c2O)C2C(=O)N(c3ccccc3)C(=O)C21 (stereo not given)	4%	?	-3.3%	-4%	-3	-12	0.9
COC(=O)c1nnn(-c2cccc(Cl)c2)c1C(=O)OC	-7%	7%	·	2%[15.4 µM]	6	1	-0.4
COC(=O)Cn1c(CN2CCc3ccccc3C2)nc2c1c(=O)n(C)c(=O)n2C	0%	9%	-8.8%	-55%[inhibitor]	-14	-6	-1.6
COc1ccc(NC(=O)N(Cc2cc3cc(OC)c(OC)cc3[nH]c2=O)CC2CCCO2)cc1 (stereo not given)	3%	13%	4.4%	-68%[inhibitor]	·	4	1.7
CCS(=O)(=O)c1ccc(O)c(NC(=O)COc2ccccc2)c1	-4%	4%	0.2%	-3%	2	-1	-1.4
Cc1cc(C)n(CCc2nc(-c3cccs3)cs2)n1	3%[15.4 µM]	?	-1.3%	17%	-1	4	0.4
Cc1ccc(C)c(OCCCC(=O)NC2CCCCC2)c1	-14%	24%	3.2µM*	7%[15.4 µM]	0	-6	1.4
COc1ccc(-c2cc(C(F)(F)F)c(C#N)c(SCC(=O)O)n2)cc1	-14%	6%	·	-8%[15.4 µM]	-1	28	2.2

Exported with values under each structure: entries from further up.
Order of values: gsp antag | Sfp inh | ClpP mod | gsp ag | CtBP-E1A blk | TRPV1 PAM | Menin-MLL FL inh
> COc1ccc(N=C2CCS(=O)(=O)c3sccc32)cc1
    -17% | -18% | 1.3% | 16%[15.4 µM] | 3 | 2 | -0.4
> OC(COc1ccc(C2C=CCC2)cc1)CN1CCCCC1 (stereo not given)
    11% | 18% | -3.3% | -11% | -10 | 4 | 4.1
> O=C(O)CC1(CC(=O)NCc2ccc(-c3cccs3)cc2)CCCCC1
    -12% | 6% | · | 23% | 4 | 2 | 1.1
> CCC1(C(=O)O)NC(c2cccc(OC)c2O)C2C(=O)N(c3ccccc3)C(=O)C21 (stereo not given)
    4% | ? | -3.3% | -4% | -3 | -12 | 0.9
> COC(=O)c1nnn(-c2cccc(Cl)c2)c1C(=O)OC
    -7% | 7% | · | 2%[15.4 µM] | 6 | 1 | -0.4
> COC(=O)Cn1c(CN2CCc3ccccc3C2)nc2c1c(=O)n(C)c(=O)n2C
    0% | 9% | -8.8% | -55%[inhibitor] | -14 | -6 | -1.6
> COc1ccc(NC(=O)N(Cc2cc3cc(OC)c(OC)cc3[nH]c2=O)CC2CCCO2)cc1 (stereo not given)
    3% | 13% | 4.4% | -68%[inhibitor] | · | 4 | 1.7
> CCS(=O)(=O)c1ccc(O)c(NC(=O)COc2ccccc2)c1
    -4% | 4% | 0.2% | -3% | 2 | -1 | -1.4
> Cc1cc(C)n(CCc2nc(-c3cccs3)cs2)n1
    3%[15.4 µM] | ? | -1.3% | 17% | -1 | 4 | 0.4
> Cc1ccc(C)c(OCCCC(=O)NC2CCCCC2)c1
    -14% | 24% | 3.2µM* | 7%[15.4 µM] | 0 | -6 | 1.4
> COc1ccc(-c2cc(C(F)(F)F)c(C#N)c(SCC(=O)O)n2)cc1
    -14% | 6% | · | -8%[15.4 µM] | -1 | 28 | 2.2

Next results
SMILES	gsp antag	Sfp inh	ClpP mod	gsp ag	CtBP-E1A blk	TRPV1 PAM	Menin-MLL FL inh
O=[N+]([O-])c1ccc(CP(=O)(c2ccccc2)c2ccccc2)cc1	4%	18%	-1.4%	?	·	6	1.9
COc1ccc(C(=O)Nc2ccccc2C(=O)NCCN2CCOCC2)cc1	-10%	10%	-1.5%	-10%	11	-29	3.4
CCOC(=O)c1cc(CC)sc1NC(=O)CN1CCN(C(=O)c2ccco2)CC1	?	40µM*	-8.7%	4%	-13	1	·
CC(=O)Nc1ccc(S(=O)(=O)N2CCC(NC(=O)c3ccco3)CC2)cc1	-3%	15%	-0.4%	4%	5	17	-2.1
Cc1ccc(CN2CCN(/N=C/C(Br)=C\c3ccccc3)CC2)cc1	0%	?	·	-12%[15.4 µM]	-20	3	0.2
COc1cccc(N2[C@@H](CC(C)=O)c3cc(C(F)(F)F)ccc3S2(=O)=O)c1	12%	·	-1.6%&-2.8%	·	-4	·	·
Cc1ccc(-c2cccc(OC(=O)c3ccccc3F)c2)cc1	13%	-8%	-0.9%	16%	8	·	3.1
CCc1ccc(CNC(=O)CCn2ccc3cc(S(=O)(=O)N4CCCC4)ccc32)cc1	-14%	-7%	1.5%	22%	-10	-2	-0.3
S=c1[nH]nc(-c2ccncc2)n1/N=C/C=C/c1ccco1	-29%	45µM*	-0.4%	?	-1	-2	2.2
O=C(COc1ccc2ccc(=O)oc2c1)Nc1ccc2c(c1)OCCO2	0%	10%	?	12%	-12	-6	7.7
O=C(N/N=C/c1ccc(OC(=O)c2ccccc2Cl)cc1)c1cc(O)cc(O)c1	-11%	?	-2.5%	-5%[15.4 µM]	-74*	11	3.2
COc1ccc(S(=O)(=O)Nc2ccccn2)cc1OC	-6%	-10%	-1.5%	0%	0	8	0.4
COc1ccc(/C=C/C(=O)c2cc(F)ccc2OC(=O)c2ccccc2C)cc1OC	12%	2%	-8.4%	1%	14	10	0.8
COc1ccccc1NS(=O)(=O)c1cccc(C(=O)NN=C2CCCC2)c1	1%	-7%	·	-7%	1	1	-0.5
Cc1ccc(S(=O)(=O)N(C)C)cc1NC(=O)COC(=O)Cc1n[nH]c(=O)c2ccccc12	8%	21%	-1.5%	2%	6	5	·
Cc1ccc(CNS(=O)(=O)CCNC(=O)c2ccccc2)cc1	-4%	·	-0.6%	5%[15.4 µM]	-2	6	·
CC(NC(=O)C1C(=O)N(CCO)C2(C)CC1c1ccccc1O2)c1ccccc1 (stereo not given)	5%	1%	1.3%	17%	2	-3	6.3
COC(=O)CSc1nc2ncccc2[nH]1	-6%	6%	-5.6%	18%	6	-32	1.7
Cc1cccc(C(=O)NCCCn2ccnc2)c1C	6%	-24%	·	17%	7	-5	0.3
CC1(C)OC(=O)C(=CNc2ccc(F)cc2)C(=O)O1	5%	13%	-1.0%	-27%	0	-3	-0.4
Cc1ccc(-c2nc3c(c(=O)[nH]c(=O)n3Cc3ccccc3)n2C)o1	1%	10µM*	4.3%	1%	·	6	13
Cc1ccc(C(=O)NC(NC(=S)Nc2ccc(S(N)(=O)=O)cc2)C(Cl)(Cl)Cl)cc1 (stereo not given)	3%	1%	-8.3%	4%	0	1	-1.7
O=C(Nc1cccnc1)c1cccc(-c2cc3ccccc3oc2=O)c1	4%	-11%	·	-16%	2	-15	-1.1
COc1ccc(Cl)cc1C(=O)Nc1ccc2nc3n(c(=O)c2c1)CCCC3	0%	7%	0.2%	6%[15.4 µM]	0	2	1.4
COC(=O)C1CCN(C(=O)c2cc3ccccc3oc2=O)CC1	12%	0%	-13%	11%	9	-5	-5.8
COc1cc(C(=O)OCc2cc(=O)n3ccsc3n2)ccc1OC(C)C	9%	·	0.1%	-2%[15.4 µM]	-1	·	·
N/C(=N\c1nc(CSc2ccc(Cl)cc2)cc(=O)[nH]1)Nc1cccc2ccccc12	7%	15%	-1.8%	-70%[inhibitor]	18	8	2.7
COc1ccc(Cn2c(=S)[nH]c3ccccc32)cc1	-12%	-15%	-0.4%	7%	1	-7	0.5

Source: PubChem (National Center for Advancing Translational Sciences (NCATS))
